Compound activity deposited in PubChem BioAssay by National Center for Advancing Translational Sciences (NCATS).
MARV entry inh – qHTS for inhibitors of binding or entry into cells for Marburg Virus; Marburg virus pseudotyped entry inhibition, cell reporter; control for the full effect not named in the record; about a third of the inactives were read at about 46 µM; Potency, µM (doses to about 37.8 µM), inactives show at the highest dose activity change, negative = inhibition, most hits filed as inhibitors; 300,000 compounds, 1.8% hits; AID 540276, 2011; active = well fitted inhibition curve with a large enough effect; inconclusive = small, poorly fitted or top-dose-only effect, or effect the other way; inactive = flat fitted curve, though single readings scatter; tested in HEK293 cells; about a fifth of its hits are not listed in these tables; further: on the % scale 0 is the no-effect control and ±100 the full control effect; luciferase read-out
Cruzain inh Det – qHTS Assay for Promiscuous and Specific Inhibitors of Cruzain (with detergent); Cruzipain (Trypanosoma cruzi), P25779; AID 1478, 2009; Potency, µM, for the others: max response, negative = inhibition, usual class: inhibitors; purified cruzain, Z-FR-AMC fluorescence, 0.01% Triton; 200,000 compounds, 0.43% hits; active means well fitted curve in the direction sought with a large enough effect; inconclusive means small, poorly fitted or top-dose-only effect, or another doubt; inactive means no such curve, though single readings can be large; an effect the other way counts as inactive or inconclusive;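 further: plate controls were neutral wells for no effect and buffer without enzyme for full effect; nearly all actives have a fitted effect of over 40% in size; top concentration of the series not given in the record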
Target sequence (P25779 123-467 limits assumed): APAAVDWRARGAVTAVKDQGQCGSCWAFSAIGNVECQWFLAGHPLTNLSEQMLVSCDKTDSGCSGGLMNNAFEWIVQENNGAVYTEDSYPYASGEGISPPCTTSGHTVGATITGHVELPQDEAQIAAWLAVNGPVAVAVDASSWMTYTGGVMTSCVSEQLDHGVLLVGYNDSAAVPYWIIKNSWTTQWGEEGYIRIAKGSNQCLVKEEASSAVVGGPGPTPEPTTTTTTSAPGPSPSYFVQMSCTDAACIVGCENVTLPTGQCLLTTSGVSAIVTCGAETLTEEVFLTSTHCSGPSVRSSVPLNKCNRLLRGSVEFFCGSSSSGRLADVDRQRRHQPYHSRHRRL
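15 min RT preincubation of 1.5 nM cruzain with compound, then 2 uM Z-FR-AMC added; kinetic AMC fluorescence, 60 s delta. Triton X-100 0.01%, pH 5.5.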
Lassa entry inh – qHTS for Inhibitors of binding or entry into cells for Lassa Virus; 300,000 compounds, 1.2% hits; Lassa virus pseudotype entry inhibition, cell reporter; control for the full effect not named in the record; AID 540256, 2011; Potency, µM (top dose mostly 37.9 µM), inactives show top-dose activity change, negative = inhibition, usual class: inhibitors; active means well fitted inhibition curve with a large enough effect; inconclusive means small, poorly fitted or top-dose-only effect, or effect the other way; inactive means flat fitted curve, though single readings scatter; tested in HEK293 cells; further: on the % scale 0 is the no-effect control and ±100 the full control effect; nearly all actives have a fitted effect of over 50% in size; luciferase read-out
NS1 inh – qHTS Assay for Inhibitors of Influenza NS1 Protein Function; S. cerevisiae slowed by influenza A NS1, growth recovery by OD600; Potency, µM (series often up to 46.1 µM), inactives show at the highest dose activity, positive = more growth; 270,000 compounds, 0.4% hits; further: actives are rising curves; nearly all actives have a fitted effect of over 50% in size
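Growth recovery, yeast-based: influenza A NS1 expressed in S. cerevisiae causes slow growth, and suppressors are detected by OD600. The parent strain without NS1 is used as positive control.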
SARS PLpro yeast – qHTS of Yeast-based Assay for SARS-CoV PLP; S. cerevisiae expressing SARS-CoV PLpro, growth rescue; control for the full effect not named in the record; Potency, µM (highest dose often 32.9 µM), inactives show at the highest dose activity, positive = growth rescue; 330,000 compounds, 0.19% hits; further: 0% is about no effect; nearly all actives have a fitted effect of over 55% in size; growth read by luminescence after 48 h
Cruzain inh noDet – qHTS Assay for Promiscuous and Specific Inhibitors of Cruzain (without detergent). Cruzipain (Trypanosoma cruzi), P25779. purified cruzain, Z-FR-AMC fluorescence, no detergent. Potency, µM, inactives show max response, negative = inhibition, usual class: inhibitors. 200,000 compounds, 2.3% hits. AID 1476, 2009; active means well fitted curve in the direction sought with a large enough effect; inconclusive means small, poorly fitted or top-dose-only effect, or another doubt; inactive means no such curve, though single readings can be large; an effect the other way counts as inactive or inconclusive;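 further: plate controls were enzyme without inhibitor for no effect and buffer without enzyme for full effect; nearly all actives have a fitted effect of over 40% in size; top concentration of the series not given in the record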
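Purified cruzain at 1.5 nM, pre-incubated 15 min with compound at room temperature in 100 mM sodium acetate pH 5.5, 5 mM DTT, 0.00005% Triton X-100. Reaction started with 2 uM Z-FR-AMC; AMC fluorescence increase over 60 s gives rate.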
RE007 growth inh – qHTS Assay for Inhibitors of the HIV-1 protein Vpr; S. pombe RE007 Vpr strain, BacTiter-Glo ATP luminescence, 24 h; control for the full effect not named in the record; AID 651644, 2012; 360,000 compounds, 0.21% hits; Potency, µM (titrated, usually from 92.2 µM), for inactives: top-dose activity change, negative = less growth; active = well fitted falling curve with a large enough effect; inconclusive = small, poorly fitted or top-dose-only effect; inactive = no such curve, though single readings can be large or run the other way;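 further: on the % scale 0 is the no-effect control and ±100 the full control effect; nearly all actives have a fitted effect of over 50% in size; the assay follows cell death caused by Vpr and the record does not say whether a fall means rescue or toxicity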
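Fission yeast strain RE007, carrying one chromosomally integrated HIV-1 vpr copy, was seeded at OD 0.01 in PMG+AL medium with 23 nL pinned compound. After 24 h at 30 °C and 99% humidity, viability was read by BacTiter-Glo luminescence.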
2A StopGo – High Throughput Screening for Foot and Mouth Disease Virus Antivirals | Potency, µM (doses to about 57.9 µM), for the others: at the top dose signal change, negative = less light | 410,000 compounds, 1.2% hits | AID 1159524, 2015 | human cells with a luciferase reporter of 2A StopGo recoding; control for the full effect not named in the record; active = well fitted falling curve with a large enough effect; inconclusive = small, poorly fitted or top-dose-only effect; inactive = no such curve, though single readings can be large or run the other way; tested in HEK293T cells; further: on the % scale 0 is the no-effect control and ±100 the full control effect; nearly all actives have a fitted effect of over 45% in size; luciferase light after 4 h
* marks the source's active call; other numbers are inactive results; ? = inconclusive; nt = no result given; & = joins results of further samples; [ ] = dose if it differs, or a comment. Unless noted, the call rests on the fitted dose curve; in most records, active means well fitted rising curve with a large enough effect; inconclusive means small, poorly fitted or top-dose-only effect; inactive means no such curve, though single readings can be large or run the other way. Potency means the concentration at half of the fitted maximal effect. No enrichment for hits. Share with any hit: about 4.7%.

SMILES	MARV entry inh	Cruzain inh Det	Lassa entry inh	NS1 inh	SARS PLpro yeast	Cruzain inh noDet	RE007 growth inh	2A StopGo
O=C(CN1CCN(C(=O)C2COc3ccccc3O2)CC1)Nc1ccc(F)cc1 (stereo unspecified)	9%[46.1 µM]	nt	-18%[46.1 µM]	3%	1%	nt	7%	-18%
COc1ccc(C(=O)NCCSc2ccccc2C)cc1	nt	nt	nt	-28%	-8%	nt	-6%	39%[activator]
O=S(=O)(c1ccc(N2CCN(S(=O)(=O)c3ccccc3)CC2)nc1)N1CCCC1	-1%[46.1 µM]	nt	6%	5%	0%	nt	2%	-12%
CC(C)(C)c1nnc2sc(SCC(=O)NCc3ccco3)nn2c1=O	-3%	nt	-4%	nt	-2%	nt	-6%	-18%
CC(C)CCOc1ccc(C(=O)NN2C(=O)NC3(CCCCC3)C2=O)cc1	?	nt	6%[46.1 µM]	nt	-5%	nt	4%	-2%
Cc1ccc(CNC(=O)CSCc2ccccc2F)cc1	?	nt	0%	nt	0%	nt	5%	62%[activator]
COC(=O)Nc1ccc(S(=O)(=O)N2CCCC(C(=O)NC3CCS(=O)(=O)C3)C2)cc1 (stereo unspecified)	19%	1.5%	-4%	-1%	0%	3%	3%	-12%
COCCNC(=O)c1[nH]c2cc(C)ccc2c1Sc1ccc(Cl)cc1	8%[46.1 µM]	-3.4%	7%[46.1 µM]	nt	nt	7%	nt	8%
O=C(NCCCN1CCCC1=O)Nc1ccccc1F	nt	nt	nt	-2%	-3%	nt	10%	28%
CC1=C(/C=C/C(C)=N\NC(=O)c2ccncc2)C(C)(C)CCC1	?	nt	?	-1%	1%	nt	8%	-14%
CCOC(=O)C1=C(C)NC(C)=C(C(=O)OCC)C1c1sccc1C	?	-9.1%	-5%	-68%	3%	14%	22%	?
COc1ccc(NC(=O)C2CCN(S(=O)(=O)c3cccc4cccnc34)CC2)cc1OC	nt	2.8%	nt	-36%	-5%	7%	nt	nt
O=C(CN1CCCCC1)N1N=C(c2cccs2)CC1c1cccs1 (stereo unspecified)	nt	nt	nt	0%	0%	nt	-13%	-23%
Cc1ccc(OCCNC(=O)c2ccc(COc3ccccc3)o2)cc1	-4%	nt	?	nt	-14%	nt	28%	-5%
O=C(NCCCc1ccccc1)c1ccccc1	20%	5.2%	?	-11%	?	1%	-7%	13%
Cc1cccc(NC(=O)CCNC(=O)c2ccco2)c1	13%[46.1 µM]	5.9%	13%	16%	8%	5%	7%	23%
CC1(c2ccc(OC(F)F)cc2)NC(=O)N(CC(=O)Nc2ccc(N3CCCCC3)cc2)C1=O (stereo unspecified)	21%	nt	?	nt	-2%	nt	3%	-5%
COc1ccc(C(=O)Nc2nnc(S(=O)(=O)N(CC(C)C)c3ccccc3)s2)cc1	nt	-2.4%	?	nt	nt	9%	nt	-8%
Clc1ccc(-n2cccc2CN2CCc3c([nH]c4ccccc34)C2c2ccccn2)nc1 (stereo unspecified)	nt	nt	nt	2%	-1%	nt	-15%	-13%
CCCOc1cc(CN2CCCCC2)cc(C(C)=O)c1	?	5.5%	0%	9%	nt	-3%	-9%	-12%
O=C(c1ccc(F)cc1)N1CCN(c2cc(N3CCCCC3)c(F)cc2[N+](=O)[O-])CC1	?	-6.3%	?	-4%	-14%	-1%	14%	?
COc1ccc(OC)c(S(=O)(=O)N2CCC(C(=O)NC3CC3)CC2)c1	-3%[46.1 µM]	nt	-9%	3%	0%	nt	5%	-18%
N#CC1=C(N)NC(SCc2ccc(Br)cc2)=C(C#N)C12CCCCC2	nt	-14%	nt	10%	1%	?	-2%	-15%
CCC(=O)Oc1ccc(C/C(=N\O)c2ccc(O)cc2O)o1	-25%	-9.0%	-24%	?	1%	2%	13%	?
COc1cccc(N2CCN(C(=O)c3cc4c(=O)n(Cc5ccccc5)ccc4nc3C)CC2)c1	nt	-0.7%	-26%[46.1 µM]	-2%	-1%	?	-6%	-25%&-24%
COc1ccc(OCc2nnc(SCC(=O)Nc3cccc(Cl)c3)o2)cc1	7%[46.1 µM]	nt	0%[46.1 µM]	-1%	-2%	nt	2%	2%
Brc1ccc(-c2cnco2)cc1	-2%[46.1 µM]	nt	2%[46.1 µM]	-5%	1%	nt	6%	-9%
O=C(C1CCC(CNS(=O)(=O)c2ccc(Br)s2)CC1)N1CCN(c2ccc(F)cc2)CC1 (stereo unspecified)	?	-2.5%	1%[46.1 µM]	nt	nt	-3%	nt	?
O=C(c1cccc(NS(=O)(=O)c2ccc(F)c(F)c2)c1)N1CCCCC1	16%	nt	?	nt	-4%	nt	2%	29%
Cc1ncc(CN2CCCC(C(=O)Nc3ccc(-c4ccco4)cc3)C2)n1C (stereo unspecified)	?	nt	-1%	-1%	1%	nt	-4%	-17%
O=C1c2ccccc2C(Nc2ccc3c(c2)OCCO3)N1Cc1ccco1 (stereo unspecified)	8%	-3.7%	-2%	-40%	-24%	0%	27%	?
COC(=O)c1c(C)[nH]c(-c2csc(N)n2)c1C	9%	nt	?	nt	-4%	nt	-7%	27%
CC(Sc1nnnn1C)C(=O)Nc1ccc(N2CCOCC2)cc1 (stereo unspecified)	26%	-2.1%	6%	-4%	-2%	-8%	-14%	19%
Cn1cccc1/C=N/n1c(-c2ccc(Cl)cc2Cl)n[nH]c1=S	-4%	-9.9%	-1%	-5%	3%	-6%	-5%	-10%
CCc1ccc2c(c1)C(c1ccc([N+](=O)[O-])cc1)=NNC(c1ccc(C)cc1)=N2	?	-4.7%	0%	27%	8%	?	3%	-11%
COc1ccc(/C=C(\C#N)C(=O)Nc2cccc3ncccc23)cc1OC	nt	nt	nt	5%	-1%	nt	-4%	-9%
CCc1ccc(-n2nc(C)c3c(C)cc(=O)n(CC(=O)Nc4ccc(C)c(F)c4)c32)cc1	nt	-0.9%	10%[46.1 µM]	nt	nt	-2%	nt	-19%
O=C(COC(=O)c1ccccc1NCCO)NCc1cccs1	0%[46.1 µM]	nt	1%	nt	4%	nt	10%	-4%
C=CCn1c(SCc2nc(N)nc(N3CCCCC3)n2)nnc1-c1ccco1	7%	6.1%	6%	2%	0%	2%	-11%	nt
Cc1ccc(Nc2c(-c3ccncc3)nc3ccc(C)cn23)cc1	9%[46.1 µM]	-3.9%	-9%[46.1 µM]	nt	nt	1%	nt	-22%
COc1cc(S(=O)(=O)N2CCN(c3ccccc3F)CC2)c(OC)cc1Cl	?	-7.6%	16%	-35%	-23%	4%	20%	0%
O=C(CNCc1cccc2ccccc12)Nc1ccccc1[N+](=O)[O-]	0%	nt	5%	nt	-2%	nt	0%	4%
Cc1cccc(N2CCN(C(=O)CN3C(=O)C4CC=CCC4C3=O)CC2)c1C (stereo unspecified)	21%[46.1 µM]	nt	-4%	nt	-2%	nt	-12%	27%
Cc1ccc2nc(N(Cc3cccnc3)C(=O)CCOc3ccccc3)sc2c1	nt	-4.4%	-19%[46.1 µM]	nt	nt	-3%	nt	-7%
CC(C)Oc1ccc(CN2CCC(n3nccc3NC(=O)CCc3ccccc3)CC2)cc1	-13%	nt	-13%	-4%	2%	nt	?	-29%
Cn1cc(/C=C(\NC(=O)c2ccccc2Cl)C(=O)NCCCN2CCOCC2)c2ccccc21	nt	nt	nt	-2%	0%	nt	0%	17%
Cc1snc(SCc2cccc(Cl)c2)c1C#N	?	nt	-20%[46.1 µM]	2%	-4%	nt	7%	-9%
Clc1ccc(/C=N/Nc2ccccn2)cc1	0%[46.1 µM]	nt	29%[46.1 µM]	nt	-1%	nt	-24%	27%
Cc1cc(C(=O)CSc2nnc(-c3ccco3)o2)c(C)n1C	-18%[46.1 µM]	nt	9%	nt	-6%	nt	-4%	19%
CCOC(=O)c1cccc(NC(=O)Cn2cnc3nc4c(cc3c2=O)CCCC4)c1	nt	-2.3%	20%[46.1 µM]	nt	nt	4%	nt	0%
CCC(C)n1c(O)c(C=NC(C)c2ccccc2)c(=O)[nH]c1=S (stereo unspecified)	-2%[46.1 µM]	nt	?	13%	2%	nt	31%	-22%
C/C(=N\Nc1nncc2ccccc12)c1cccc(OC(F)F)c1	?	nt	2.8µM*	-16%	-6%	nt	-6%	-25%
O=C(C1CCC(CNS(=O)(=O)c2ccccc2)CC1)N1CCOCC1 (stereo unspecified)	nt	nt	nt	0%	0%	nt	8%	-1%
O=C(NCc1ccccn1)c1ccc(Cl)c(NC2=NC3CS(=O)(=O)CC3S2)c1 (stereo unspecified)	nt	nt	nt	-7%	0%	nt	-7%	8%
COc1ccc(/C=N/Nc2nnc(C)n2N)cc1OC(C)=O	?	nt	?	-6%	-6%	nt	-14%	6%
Cc1cc(NC(=O)Cn2c(=O)c3c(ncn3CC(C)C)n(Cc3ccccc3)c2=O)no1	12%	-1.0%	-3%	-3%	-1%	-5%	7%	-16%
Cc1cc(N2CCC(C(=O)N3CCN(c4cccc(C)c4C)CC3)CC2)n2ncnc2n1	?	-2.3%	-16%	-14%	3%	?	10%	-16%
Cc1ccn2cc(CNS(=O)(=O)c3ccc4c(c3)OCCO4)nc2c1	nt	3.7%	nt	-21%	5%	-5%	-2%	-16%
Cc1ccn2c(Nc3ccccc3C)c(-c3ccccn3)nc2c1	?	-2.6%	?	nt	-33%	-3%	-29%	?
Fc1ccc(NC(=S)NN=C2CCCCCC2)cc1	26%	-7.2%	?	-4%	22%	-10%	2%	nt
CC(C)CC(NC(N)=O)C(=O)Nc1cccc([N+](=O)[O-])c1 (stereo unspecified)	1%[46.1 µM]	nt	?	-4%	-1%	nt	3%	-14%
CN(C)c1nc(NCc2ccccc2)nc(N/N=C/c2ccc3c(c2)OCO3)n1	-17%	-6.7%	7%	-1%	-10%	2%	-16%	?
O=C(Oc1c(-c2ccco2)oc2ccccc2c1=O)c1cccnc1	-5%[46.1 µM]	nt	-13%	nt	-3%	nt	0%	14%
